Screens as filed in PubChem.
VDR inh = blocks the human vitamin D receptor; Potency, µM, without a hit: max response, negative = inhibition, actives largely listed as inhibitors; 400,000 compounds, 0.93% hits; VDR-SRC2-3 peptide fluorescence polarization, 2 h; AID 504847; P11473; active = well fitted inhibition curve with a large enough effect; inconclusive = small, poorly fitted or top-dose-only effect, or another doubt; inactive = no such curve, though single readings can be large or run the other way; note: series mostly up to about 120 µM
Target sequence (P11473 whole entry, looked up): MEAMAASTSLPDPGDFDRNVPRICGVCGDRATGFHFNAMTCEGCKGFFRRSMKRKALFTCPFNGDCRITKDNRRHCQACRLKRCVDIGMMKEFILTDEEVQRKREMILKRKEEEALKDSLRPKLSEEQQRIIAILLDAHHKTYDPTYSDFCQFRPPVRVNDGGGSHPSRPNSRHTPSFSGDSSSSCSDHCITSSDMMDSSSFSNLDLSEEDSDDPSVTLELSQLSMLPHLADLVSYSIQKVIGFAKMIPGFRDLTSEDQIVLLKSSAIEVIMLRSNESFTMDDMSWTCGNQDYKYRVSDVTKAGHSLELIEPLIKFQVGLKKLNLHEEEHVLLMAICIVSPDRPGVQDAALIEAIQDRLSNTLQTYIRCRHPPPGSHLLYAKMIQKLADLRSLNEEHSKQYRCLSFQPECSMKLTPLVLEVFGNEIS
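Compounds are added to VDR with labelled SRC2-3 coactivator peptide and held 2 h at room temperature. Inhibition of the VDR–peptide interaction is then read as a change in fluorescence polarization.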
Active calls of the source: *; ? = inconclusive; & = joins results of further samples; [ ] = another dose, or the depositor's remark. % is set by controls: 0 for no effect and ±100 for the full control effect; potency is the fitted concentration of half-maximal effect. An excerpt; the hit share may differ from the screen's.

SMILES | VDR inh
COc1cc2[nH]c(=S)n(N(C(C)=O)C(C)=O)c(=O)c2cc1OC | 2%
Cc1ccc2c(c1)N(CC(=O)N1CCc3ccccc3C1)C(=O)CO2 | 4%
O=C(NCc1ccccc1F)C1CCCN1C(=O)NC1CCCCC1 (centres undefined) | -3%
O=C(NC(NC(=S)Nc1cccc(Cl)c1)C(Cl)(Cl)Cl)OCc1ccccc1 (centres undefined) | 13%
COc1ccccc1CN1CCC(n2nccc2NC(=O)CCOc2ccccc2)CC1 | 7%
O=C(NCc1ccc(F)cc1F)c1cc(COc2c(F)cccc2F)on1 | -7%
COc1ccc(OC)c(Cc2nnc(CCC(=O)N3CCC(N4CCCCC4)CC3)o2)c1 | -18%
O=C(O)C1CCN(C(=O)c2cc(F)cc3c2OCOC3)CC1 | 3%
COC(=O)c1cccc(Nc2c(-c3ccc(O)c(OC)c3)nc3nc[nH]n23)c1 | 3%
CCOC(=O)c1sc(=S)n(C)c1NC(=O)c1ccccc1C | ?
CC(C)(C)c1ccc(C(=O)NC(=S)N2CCCC2)cc1 | -6%
CC(=O)c1c(C)oc2ccc(NS(=O)(=O)c3ccc(F)cc3C)cc12 | 10%
N#Cc1ccc(-c2csc(NC3=NCCCCC3)n2)cc1 | 6%
Cc1cc(-c2nnc(SCC(=O)Nc3nccs3)o2)no1 | -8%
CCCNS(=O)(=O)c1ccc(CCC(=O)N2CCC(C)CC2)cc1 | 9%
CC(=O)CCSc1ncnc2sc(-c3ccccc3)cc12 | 5%
C/C(=N\NC(=O)c1ccc(C)cc1C)c1ccc2c(c1)OCO2 | -9%
O=C(CCS(=O)(=O)c1ccc(Cl)cc1)Nc1ccc(F)cc1 | 21%
Cc1cccc(Nc2ncnc(N)c2[N+](=O)[O-])n1 | -23%
CCCCCCCOc1ccc(C2CC(=O)N(C)C2=O)cc1 (centres undefined) | 12%
COc1ccccc1CNC(=O)C1CCCN1S(=O)(=O)c1cccc2cccnc12 (centres undefined) | -5%
O=C(O)COc1ccc(/C=N/n2c(COc3ccccc3)nc3ccccc3c2=O)cc1 | -7%
O=[N+]([O-])c1ccc(O)c(/C=N/Nc2nc3ccccc3[nH]2)c1 | -9%
C/C(=N\NC(=O)c1cc(Br)ccc1O)c1ccccn1 | 4%
COc1cccc(NC(=O)[C@H](C)NC(=O)C2CCN(S(=O)(=O)c3ccc(C)cc3)CC2)c1 | 33%[activator]
O=C(COc1ccc(Cl)cc1)NCC(=O)N1CCC2(CC1)NCCc1[nH]cnc12 | -11%
Cc1ccc2cccc(NC(=O)c3ccc(-c4ccc(Br)cc4)o3)c2n1 | 0%
Cc1[nH]c2ccccc2c1C(=O)C(=O)NCc1ccncc1 | -13%
CCCCCCCC[n+]1cccc2c3ccccc3ccc21 | -1%
COc1ccc(NC(=O)c2cc(S(=O)(=O)N3CCCCC3)ccc2N2CCCCC2)cn1 | -5%
Cn1c(=O)c2c(ncn2CCC(=O)N/N=C/c2cccnc2)n(C)c1=O | -2%
COc1ccc(NC(=O)c2cccc(N3C(=O)c4ccc(C(=O)Nc5ccc(OC)c(O)c5)cc4C3=O)c2)cc1O | -2%
COc1ccc(/C=C2\SC(=S)N(CC(=O)NCCO)C2=O)cc1 | 21%
CCCc1nnc(NC(=O)CCC(=O)NCCc2ccc(Cl)cc2)s1 | -20%
COc1cccc(-c2c(-c3cc(OC)cc(OC)c3)n(C)c3ccc(-c4cccc5[nH]ccc45)cc23)c1 | -27%
COc1ccc(CN2C(=O)CCC2(C)C(=O)NC2CCCCCC2)cc1 (centres undefined) | -7%
Cc1sc(NC(=O)c2ccc(=O)n(C)n2)nc1-c1ccccc1 | 5%
CCC(c1nnnn1Cc1cccs1)N1CCN(C2CCCC2)CC1 (centres undefined) | 2%
COc1ccc(C)cc1N(CC(=O)Nc1cccnc1)S(=O)(=O)c1ccccc1 | 8%
COc1cc(NC(=O)N2CCC(CN3CCOCC3)CC2)cc(OC)c1OC | 7%
Cc1ccccc1NC(=O)/C(=C\c1cccs1)NC(=O)c1ccco1 | 6%
COc1ccccc1S(=O)(=O)Cc1ccc(C(=O)NCc2ccc(C)cc2)o1 | -2%
O=[N+]([O-])c1ccc(OCCO)nc1 | -9%
CCC1CCc2c(sc(NC(C)=O)c2C#N)C1 (centres undefined) | -14%
O=c1c(-c2ccc(Cl)cc2)nc2cnc(N3CCNCC3)nc2n1-c1ccccc1 | -19%
CCOc1ccc(NC(=O)Nc2ccc(Cc3ccncc3)cc2)cc1 | 6%
CCOC(=O)c1cc2c(ccn2C)n1CC(=O)N1C(C)CCCC1C (centres undefined) | -16%
CCOC(=O)C(/C=C(\C#N)C(=O)OCC)=C(/N)N1CCN(c2ccccc2)CC1 | ?
S=C(NCCCN1CCOCC1)NCCCN1CCOCC1 | ?
COc1ccc(-c2noc(CSc3nnc(C)n3-c3ccc(OC)cc3)n2)cc1 | 9%
COc1cccc(NC(=O)C(=O)NCC(c2cccnc2)N2CCN(c3ccccc3)CC2)c1 (centres undefined) | 7%
COc1ccccc1COCC(O)CNCC1(N2CCCCC2)CCCCC1 (centres undefined) | 2%
CN(CCCOc1ccccc1Br)Cc1ccccc1 | -10%
Cc1cc2c(nn1)CCC/C2=N\O | -5%
CNC(=S)Nc1ccc(C)cc1 | -4%
COC(=O)C1=C(C)N(C)C(C)=C(C(=O)OC)C1c1cccc(Br)c1 | -5%
CNC(=S)NCCC(c1ccccc1)c1ccccc1 | 11%
CN1CCCC(OC(=O)c2ccccc2F)C1 (centres undefined) | -1%
Cc1n[nH]c(=S)n1/N=C/c1ccc(OCc2ccc(Cl)cc2Cl)cc1 | 12%
Cc1ccc(F)cc1NC(=O)c1ccc2c(c1)OCO2 | 6%

Part of the list above in order of molecular weight, largest number first.
SMILES | VDR inh
COc1ccc(-c2noc(CSc3nnc(C)n3-c3ccc(OC)cc3)n2)cc1 | 9%
S=C(NCCCN1CCOCC1)NCCCN1CCOCC1 | ?
CNC(=S)NCCC(c1ccccc1)c1ccccc1 | 11%

More compounds follow.
SMILES | VDR inh
CC(C)NC(=O)Nc1ccc2c(c1)C(=O)N([C@H](C)CO)C[C@H](C)[C@@H](CN(C)C(=O)NC(C)C)O2 | -6%
COc1cccc(C2CC(c3ccc(Cl)cc3Cl)Nc3nc(N)nn32)c1 (centres undefined) | -8%
COc1ccc(-c2csc(Nc3cccc(C)n3)n2)cc1C | 8%
CC(Nc1nc(-c2ccccc2F)nc2ccccc12)c1ccccc1 (centres undefined) | 18%
CCOC(=O)C1CCCN(Cc2nc(N)nc(Nc3ccccc3)n2)C1 (centres undefined) | -3%
COC(=O)c1ccccc1NC(=O)Cn1cc2c(n1)CCC(C)C2 (centres undefined) | 0%
CCOc1ccc(C(C)(O)CN2CCOCC2)cc1 (centres undefined) | -7%
Cc1ccc(CNC(=O)CCc2c(C)nn(-c3ccc(N4CCOCC4)nn3)c2C)cc1 | -5%&13%
CCn1c(=O)n(-c2ccc3c(c2)OCO3)c2nc(-c3cccc(OC)c3OC)nc(C(N)=O)c21 | -25%
CCCC(=O)Nc1nnc(SCC(=O)NCc2cccs2)s1 | -8%
CC1CC(C)CN(C(=S)NC2CCCCC2)C1 (centres undefined) | -24%
Nc1c(N2CCCCC2)c2ccccc2oc1=O | -21%
COC(=O)c1cc2ccccc2c(-c2c(OC)c(C(=O)OC)cc3ccccc23)c1OC | 0%
COC(=O)c1c(C)nc(C)c(C(=O)OC)c1-c1ccc(OC)c(OC)c1 | -3%
CC1=Nc2cc(C(=O)NC3CCCC3)ccc2Sc2ccc(Br)cc21 | 0%

Grouped by structure: the entries above with fluorine
SMILES | VDR inh
O=C(NCc1ccccc1F)C1CCCN1C(=O)NC1CCCCC1 (centres undefined) | -3%
O=C(NCc1ccc(F)cc1F)c1cc(COc2c(F)cccc2F)on1 | -7%
O=C(O)C1CCN(C(=O)c2cc(F)cc3c2OCOC3)CC1 | 3%
CC(=O)c1c(C)oc2ccc(NS(=O)(=O)c3ccc(F)cc3C)cc12 | 10%
O=C(CCS(=O)(=O)c1ccc(Cl)cc1)Nc1ccc(F)cc1 | 21%
CN1CCCC(OC(=O)c2ccccc2F)C1 (centres undefined) | -1%
Cc1ccc(F)cc1NC(=O)c1ccc2c(c1)OCO2 | 6%
CC(Nc1nc(-c2ccccc2F)nc2ccccc12)c1ccccc1 (centres undefined) | 18%

Next records.
SMILES | VDR inh
O=C(CC1Sc2ccccc2NC1=O)OCC(=O)N1CCc2ccccc21 (centres undefined) | 6%
CCOc1ccc(N(C(=O)c2ccccc2F)S(=O)(=O)c2ccc3c(c2)n(C)c(=O)n3C)cc1 | -4%
CCOC(=O)[C@@H]1[C@H]2COc3ccccc3[C@@H]2N2C(=O)N(c3ccccc3)C(=O)[C@]12C | 19%
COC(=O)c1ccc2c(c1)N(Cc1ccc(F)cc1)C(=O)c1ccccc1S2 | 12%
COc1ccc(C2(C)NC(=O)N(CC(=O)NCC(=O)Nc3ccc(F)c(F)c3F)C2=O)cc1OC (centres undefined) | -4%
Nc1nc2n(n1)C(c1cccc(Cl)c1)CC(c1ccc(F)cc1)N2 (centres undefined) | 7%
C=CCn1c(SC2CCOC2=O)nc2sc(C)c(C)c2c1=O (centres undefined) | -1%
O=C(NCCc1c[nH]c2ccccc12)C(=O)Nc1cc2c3c(c1)CC(=O)N3CCC2 | -3%
COc1ccc2ccccc2c1C1CC(=O)N2CN(C)CSC2=C1C#N (centres undefined) | 25µM*
Cc1cccc2c1CC(C)(C)N=C2C1=C(O)CCCC1=O | -6%
O=C(c1cc([N+](=O)[O-])ccc1N1CCOCC1)N1CCN(S(=O)(=O)c2cc(Cl)ccc2Cl)CC1 | -11%
O=C(COC(=O)CN1C(=O)c2ccccc2C1=O)Nc1ccc(S(=O)(=O)N2CCCC2)cc1 | 9%
CS(=O)(=O)c1ccc(C(=O)N2CCc3ccccc3C2)cc1 | -2%
COc1ccc(NC(=O)Cc2ccsc2)c(OC)c1 | -15%
CCc1cc(C(=O)OC)c(NC(=O)CC2SC(N)=NC2=O)s1 (centres undefined) | -7%
COc1ccc(CCN2CC(C(=O)NC3CCOCC3)CCC2=O)cc1 (centres undefined) | -12%
COc1ccc(-c2cc(C(=O)O)c3ccccc3n2)c(OC)c1 | 10%
COc1ccc(NC(=O)/C(N=Nc2cccc(S(=O)(=O)Nc3ccc(SC(F)F)cc3)c2)=C(\C)O)cc1 | 29%
COc1ccc(NS(=O)(=O)c2cc([N+](=O)[O-])ccc2N/N=C\c2c(C)[nH]c3ccccc23)cc1 | 12%
Cc1cc(NC(=O)Nc2ccccc2F)ccc1Br | 15%
O=C(O)C1CCC(N2C(=O)C3CCCCC3C2=O)CC1 (centres undefined) | -4%
COc1ccc(-c2cc(=O)n(-c3nc4ccccc4[nH]3)[nH]2)cc1 | -17%
Cc1n[nH]c(=O)nc1NCc1ccco1 | 1%
CC(=O)OCC1=C(C(=O)O)N2C(=O)C(NC(=O)CCn3nc(C(F)(F)F)c(Br)c3C3CC3)C2SC1 (centres undefined) | 40µM*
O=C(Nc1ccc2[nH]c(=O)[nH]c2c1)c1cc(F)c(F)cc1Cl | 1%
OCC1=C[C@@H](O)[C@@H]2C=CO[C@@H](OC3O[C@H](CO)[C@@H](O)[C@H](O)[C@H]3O)[C@H]12 (some centres undefined) | 4%
Cc1nnc(NC(=O)CSc2nc(C(C)C)nc3ccccc23)s1 | 8%
CCC1(c2ccc(F)cc2)NC(=O)N(CC(=O)Nc2cccnc2Cl)C1=O (centres undefined) | 14%
COC(=O)c1ccccc1NC(=O)CN1CCC(n2nnc3cc(F)ccc32)CC1 | 8%
COc1cc(C(=O)N2CCc3c([nH]c4ccccc34)C2c2ccc(C)cc2)cc(OC)c1OC (centres undefined) | 12%
O=C(c1cnc2n(c1=O)CCS2)N1CCN(c2ccc([N+](=O)[O-])cc2)CC1 | -2%
CC(=O)Nc1cccc(-c2csc(N)n2)c1 | -2%
O=C1CC(c2ccccc2)CC(O)=C1C=NCc1ccco1 (centres undefined) | 19%
CC(NC(=O)c1ccc2c(c1)OCO2)C(c1cccs1)N1CCOCC1 (centres undefined) | 1%
Cc1c(OCC(=O)N2CCC(C(=O)O)CC2)ccc2c1oc(=O)c1ccccc12 | -19%
O=c1[nH]c(=S)[nH]c2c1CN(Cc1ccc(F)cc1)CC2 | 4%
Cc1cc(C)n2nc(SCC(=O)NC(=O)c3ccc(OC(F)F)cc3)nc2n1 | -11%
CCOc1cc(/C=C/C(=O)OCC(=O)NCC2CCCO2)cc(Cl)c1OC (centres undefined) | -19%
Cc1cc(C)c(NC(=O)CN2C(=O)c3cccnc3Oc3ccc(C)cc32)c(C)c1 | 7%
O=c1c2[nH]c3ccc(F)cc3c2ncn1CCN1CCOCC1 | 27%
COc1cc(C2c3c(-c4ccccc4O)n[nH]c3C(=O)N2CCO)ccc1OCc1ccccc1 (centres undefined) | 8%
O=C1CCCC/C1=C/Nc1ccc(C(=O)O)cc1 | -2%
COC(=O)C[N+](C)(C)C/C=C\c1ccccc1 | -24%
O=C(Nc1cccc(O)c1)c1noc2c1CCCCC2 | 2%
COc1ccc(C)cc1NC(=O)CSc1ccc(-c2ccco2)nn1 | ?
O=C(COc1ccccc1Cl)N1CCNC1=O | 3%
